# Compound activity (PubChem BioAssay)
# nsP2pro inh: Primary qHTS for inhibitors of NSP2Pro chikungunya virus (CHIKV). Polyprotein P1234 (Chikungunya virus (strain S27-African prototype)), Q8JUX6. FRET peptide cleavage, nsP2pro, fluorescence 1 h. Potency, µM (top dose mostly 24.9 µM), for the others: at the highest dose activity change, negative = inhibition, most hits filed as inhibitors. 1.1% of 31,000 active. AID 1964107, 2024; active means well fitted inhibition curve with a large enough effect; inconclusive means small, poorly fitted or top-dose-only effect; inactive means no such curve, though single readings can be large or run the other way; note: nearly all actives have a fitted effect of over 60% in size; a reference inhibitor and vehicle were the controls
# Target sequence (Q8JUX6 whole entry, looked up): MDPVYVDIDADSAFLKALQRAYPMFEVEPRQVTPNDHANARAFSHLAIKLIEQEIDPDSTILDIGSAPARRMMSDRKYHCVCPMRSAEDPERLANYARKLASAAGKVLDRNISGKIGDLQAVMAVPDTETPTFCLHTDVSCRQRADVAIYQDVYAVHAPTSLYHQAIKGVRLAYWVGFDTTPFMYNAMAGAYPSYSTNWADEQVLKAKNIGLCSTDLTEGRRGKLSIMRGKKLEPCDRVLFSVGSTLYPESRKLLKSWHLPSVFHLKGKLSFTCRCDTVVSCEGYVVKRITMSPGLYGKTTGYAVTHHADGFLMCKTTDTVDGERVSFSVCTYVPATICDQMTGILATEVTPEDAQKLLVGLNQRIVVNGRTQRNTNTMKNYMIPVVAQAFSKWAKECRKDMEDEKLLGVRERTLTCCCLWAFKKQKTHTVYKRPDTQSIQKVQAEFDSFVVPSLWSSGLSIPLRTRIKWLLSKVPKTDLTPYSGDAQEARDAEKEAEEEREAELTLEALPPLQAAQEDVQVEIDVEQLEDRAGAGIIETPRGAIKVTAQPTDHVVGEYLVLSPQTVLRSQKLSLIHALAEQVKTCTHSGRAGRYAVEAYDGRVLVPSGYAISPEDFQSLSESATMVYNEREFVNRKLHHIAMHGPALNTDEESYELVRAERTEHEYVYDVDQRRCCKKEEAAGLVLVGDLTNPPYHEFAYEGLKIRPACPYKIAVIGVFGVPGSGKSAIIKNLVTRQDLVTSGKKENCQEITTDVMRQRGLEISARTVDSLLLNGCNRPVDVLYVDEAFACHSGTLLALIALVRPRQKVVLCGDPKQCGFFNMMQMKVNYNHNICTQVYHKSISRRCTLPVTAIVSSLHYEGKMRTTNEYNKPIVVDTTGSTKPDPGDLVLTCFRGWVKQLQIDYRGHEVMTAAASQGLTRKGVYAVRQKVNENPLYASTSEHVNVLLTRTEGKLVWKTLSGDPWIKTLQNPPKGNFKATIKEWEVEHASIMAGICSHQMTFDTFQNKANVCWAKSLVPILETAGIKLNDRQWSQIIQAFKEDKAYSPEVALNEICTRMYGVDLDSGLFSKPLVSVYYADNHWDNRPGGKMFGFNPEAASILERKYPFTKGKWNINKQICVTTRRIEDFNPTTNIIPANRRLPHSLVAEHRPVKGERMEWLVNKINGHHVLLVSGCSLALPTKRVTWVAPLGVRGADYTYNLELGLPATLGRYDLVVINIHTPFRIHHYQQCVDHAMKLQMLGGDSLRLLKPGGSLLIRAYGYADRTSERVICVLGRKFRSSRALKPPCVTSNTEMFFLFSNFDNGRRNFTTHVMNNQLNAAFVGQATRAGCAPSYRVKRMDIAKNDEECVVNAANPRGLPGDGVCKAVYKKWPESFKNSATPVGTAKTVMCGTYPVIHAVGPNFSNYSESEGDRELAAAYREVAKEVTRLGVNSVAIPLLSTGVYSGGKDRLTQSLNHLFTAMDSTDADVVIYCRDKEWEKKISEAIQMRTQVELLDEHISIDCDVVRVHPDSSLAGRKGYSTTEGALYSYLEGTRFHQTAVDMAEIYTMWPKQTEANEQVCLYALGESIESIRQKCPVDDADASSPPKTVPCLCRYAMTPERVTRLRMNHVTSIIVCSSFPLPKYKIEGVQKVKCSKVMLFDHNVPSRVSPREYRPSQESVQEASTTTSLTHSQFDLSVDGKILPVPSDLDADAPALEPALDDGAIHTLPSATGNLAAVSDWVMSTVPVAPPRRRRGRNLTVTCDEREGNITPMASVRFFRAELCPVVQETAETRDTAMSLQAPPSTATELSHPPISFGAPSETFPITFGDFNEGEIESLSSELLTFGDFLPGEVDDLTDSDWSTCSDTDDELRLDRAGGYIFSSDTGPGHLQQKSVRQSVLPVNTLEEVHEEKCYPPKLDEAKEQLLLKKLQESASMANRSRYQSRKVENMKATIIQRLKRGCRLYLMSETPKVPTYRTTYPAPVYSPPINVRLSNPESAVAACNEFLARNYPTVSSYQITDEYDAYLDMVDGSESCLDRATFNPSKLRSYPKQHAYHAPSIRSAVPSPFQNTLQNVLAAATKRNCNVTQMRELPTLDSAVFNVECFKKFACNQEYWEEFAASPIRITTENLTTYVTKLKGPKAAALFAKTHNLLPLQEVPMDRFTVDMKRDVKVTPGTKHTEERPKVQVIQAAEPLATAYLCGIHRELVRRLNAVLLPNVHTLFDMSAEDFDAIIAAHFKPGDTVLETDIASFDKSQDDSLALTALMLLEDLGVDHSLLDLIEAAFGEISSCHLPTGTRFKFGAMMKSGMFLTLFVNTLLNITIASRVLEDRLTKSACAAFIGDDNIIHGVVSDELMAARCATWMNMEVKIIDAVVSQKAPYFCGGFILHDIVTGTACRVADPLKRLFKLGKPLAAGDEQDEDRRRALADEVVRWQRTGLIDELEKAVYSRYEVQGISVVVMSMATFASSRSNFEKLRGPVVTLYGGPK
# An asterisk follows results filed as active; i = inactive; ? = inconclusive; & = joins results of further samples; [ ] = dose if it differs, or a comment. % is set by controls: 0 for no effect and ±100 for the full control effect; potency is the fitted concentration of half-maximal effect. This is a subset, so the mix of outcomes need not match the whole.
SMILES,nsP2pro inh
Cc1ccc(N2CCN(C(=O)c3cc4cc5ccc(C)cc5nc4s3)CC2C)cc1 (stereo not drawn),-21.7%
Cc1ccc(-c2nn(C)c(=O)c3ccccc23)cc1S(=O)(=O)NCCCN(C)C,-25.1%
O=C1CCCC2=C1C(c1ccc(F)cc1)N=C(Nc1nc3ccccc3o1)N2 (stereo not drawn),i
O=S(=O)(c1ccc2c(c1)OCCO2)N1C[C@@H]2C[C@H]1CN2S(=O)(=O)c1c(F)cccc1F,-3.6%
Cc1ccc(S(=O)(=O)N(C)c2cccc3cccnc23)cc1,0.2%
O=C(CN1CCCN(Cc2cccc(Cl)c2)S1(=O)=O)Nc1ccc2c(c1)OCCO2,-18.9%
NC(=O)C1CCN(c2nc(-c3ccccc3-c3ccccc3)cs2)CC1,i
CCc1ccc(NC(=O)Cn2nc3c4ccccc4n(Cc4ccccc4)cc-3c2=O)cc1,-24.7%
COCCn1ccc2ccc(C(=O)Nc3ccc4c(c3)C(=O)N3CCC[C@H]3C(=O)N4)cc21,-27.5%
Cc1ccc(-n2nc3cc(C)c(NC(=O)c4ccc(-c5ccccc5)o4)cc3n2)cc1,?
CCCN1C[C@@H](NS(=O)(=O)N(CC)CC)C[C@@H]2Cc3c(O)cccc3C[C@H]21,18.0%
C/C(=N\NC(=O)C(NC(=O)c1ccccc1)c1n[nH]c(=O)c2ccccc12)c1cccc(Br)c1 (stereo not drawn),9.88µM*
Cc1cc(-c2nc3ncccc3o2)ccc1NC(=O)c1ccccc1Br,-5.8%
Cc1cc(C)cc(NC(=O)CCc2c(C)nc3c4cccnc4nn3c2C)c1,-12.8%
CC1CCC2(CO)C(C(=O)O)=CCCC2C1(C)CCc1ccoc1 (stereo not drawn),48.0%[activator]
CN(Cc1ccno1)Cc1cn(C)nc1-c1ccc(C2CCCCC2)cc1,-2.3%
CC(C)Cc1cc(C(=O)NCC2CCN(c3cnn(C)c(=O)c3)C2)no1 (stereo not drawn),?
NC(=O)C1=C(O)[C@@]2(O)C(=O)C3=C(O)c4c(O)cccc4C[C@H]3C[C@H]2CC1=O,-3.5%
O=C([C@@H]1C[C@H](F)CN1S(=O)(=O)Cc1ccccc1F)N1CCc2ccccc2C1,-3.7%
NC(=Nc1ccc(CCNCc2cccc(Cl)c2)cc1)c1cccs1,18.3%
Cc1ccc(NC(=O)c2c(C)oc3ncn(CC(C)C)c(=O)c23)nc1,-10.1%
COc1ccc(CN2CCN(Cc3cc(=O)oc4cc(C)ccc34)CC2)c(OC)c1OC,-17.4%
C=CC(=O)N1CCN(C(=O)c2cc(-c3cc(Cl)ccc3Cl)c(Cl)cc2OC)CC1,2.2%
COc1ccc(C2=Nn3c(nnc3-c3ccc(OC)c(OC)c3)SC2)cc1,i
CCOc1ccc(C(=O)Nc2ccc(-c3nc4ccccc4s3)cc2)cc1[N+](=O)[O-],-5.7%
CCn1cc(S(=O)(=O)NCC2Cn3cccc3CN2Cc2ccccc2)cn1 (stereo not drawn),?
Cc1noc(-c2ccc(OC3CN(S(=O)(=O)c4c(C)noc4C)C3)cc2)n1,2.0%
O=C(NCC1CCC(=O)N(Cc2ccccc2)CC1)C1CCCCC1 (stereo not drawn),i
CC1CCN(C(=O)C(C)Sc2nc(-c3ccccc3)cc(C(F)(F)F)n2)CC1 (stereo not drawn),-9.2%
CCCc1nc(C(C)(C)O)c(C(=O)OCc2oc(=O)oc2C)n1Cc1ccc(-c2ccccc2-c2nn[nH]n2)cc1,1.8%
CCc1cc2c(=O)c(-c3nc4ccccc4s3)coc2c(CN2CCCCC2)c1O,5.5%[10 µM]
COc1ccc(C2=Nn3c(nnc3-c3ccccc3OC)SC2)cc1OC1CCCC1,i
COc1ccccc1CC(=O)N1CCCc2ncc(C(=O)Nc3cccc(Cl)c3)cc21,i
Cc1ccc(-c2cn3c(n2)sc2cc(C(=O)N4CCCCC4)ccc23)cc1,-4.5%
O=C(c1csc(Cc2ccccc2)n1)N1CCC2(CCCNC2)C1 (stereo not drawn),-8.7%
Cc1cc(C)c(NC(=O)Cn2c(SCC(=O)NCc3ccccc3)nc3ccccc32)c(C)c1,-7.8%
N#Cc1ccc(-c2ccc(CNc3ccc(N4CCOCC4)cc3)cn2)cc1,i
CCOc1ccc(NC(=O)Cn2cc(C(=O)c3ccc(C)c(C)c3)c(=O)c3cc(OC)c(OC)cc32)cc1,-2.6%
Nc1ccccc1CNc1ccc(S(=O)(=O)Nc2nccs2)cc1,i
COc1cc2c(cc1OCC1CC1)NC(=O)C21CCN(c2ncc(F)cn2)CC1,0.6%[39.2 µM]
c1c[nH]c(CNc2ncnc3ccc(-c4ccc5c(c4)OCO5)cc23)n1,i
COc1cc(O)c2c(c1Cl)CC(C)OC2=O (stereo not drawn),3.4%
COc1ccc(OC)c(CCNC(=O)CS(=O)(=O)Cc2nc(-c3cccc(Cl)c3)oc2C)c1,3.5%
COc1ccccc1-c1noc(-c2ccc(NCc3ccco3)c([N+](=O)[O-])c2)n1,-20.6%
Cc1cccc(-c2nc(CCNC(=O)Cc3ccccc3)cs2)c1,9.6%
Cc1ccc(C)c(N2CCN(C(c3ccccc3)c3nnc(-c4ccccc4)o3)CC2)c1 (stereo not drawn),8.2%
NCCCC(N)(C(=O)O)C(F)F (stereo not drawn),-2.9%
CC(NC(=O)OCc1ccccc1)c1nc2cccnc2n1C1CCCCC1 (stereo not drawn),-8.4%
COc1ccc(CCNC(=O)Cn2c(=O)nc(-c3ccccc3F)c3cc(Cl)ccc32)cc1OC,-13.4%
CC(C)C1C(OC(=O)/C=C/c2ccccc2)CC2(C)OC2CCC2(C)OC2C1O (stereo not drawn),-12.1%
COc1cccc(OCc2nc3ccccc3n2CCOc2cccc(C)c2)c1,-3.6%
O=C(CNC(=O)c1ccc2n[nH]nc2c1)OC(C(=O)Nc1cc(C(F)(F)F)ccc1Cl)c1ccccc1 (stereo not drawn),i
COc1cc(-c2no[n+]([O-])c2C#N)cc(OC)c1OC,i
C=C1C(=O)O[C@@H]2[C@H]1CCC(C)=C1CCC(=O)O[C@]12C,20.0%
Cc1ccnc(NC(=S)N2CCN(c3cccc(C(F)(F)F)c3)C2)c1,3.8%
CCc1ccccc1N1C(=O)N(C)c2ccccc2S1(=O)=O,-20.4%
COc1ccccc1CNC(=O)C1CCCN(S(=O)(=O)c2ccc3c(c2)oc(=O)n3C)C1 (stereo not drawn),-11.6%
Cc1ccc2c(c1)N(C(=O)N1CCC(C(=O)NC3CCCCCC3)CC1)CC(C)O2 (stereo not drawn),-16.7%
COc1ccc(/C=C/C(=O)O[C@@H]2[C@@H](O[C@@H]3O[C@H](CO)[C@@H](O)[C@H](O)[C@H]3O)[C@@H](O)[C@H](O[C@H]3C4C=CO[C@@H](O[C@@H]5O[C@H](CO)[C@@H](O)[C@H](O)[C@H]5O)C4[C@@]4(CO)O[C@@H]34)O[C@H]2C)cc1 (stereo partly drawn),7.2%[5.1 µM]
N#Cc1ccnc(N2C(=O)CC[C@H]2C(=O)N(c2cncc(F)c2)[C@H](C(=O)NC2CC(F)(F)C2)c2ccccc2Cl)c1,?

# Other structures.
SMILES,nsP2pro inh
O=S(=O)(c1ccc2ccccc2c1)N1CCN(S(=O)(=O)c2c(F)cccc2F)CC1,-6.3%
CN(CC(=O)O)c1ncnc2ccc(-c3ccc4c(c3)OCO4)cc12,4.5%
CCC(=O)N1CCc2cc(Br)cc(S(=O)(=O)NCCc3ccc(OC)c(OC)c3)c21,-4.8%
Cn1cncc1CNC(=O)c1nc(-c2cccc(N3CCOCC3)c2)cc2c1ccn2C,i
O=C(Cn1c(=O)nc(-c2ccccc2)c2ccccc21)NCCc1ccccc1,-15.1%
Cc1csc(NC(=O)[C@@H]2C[C@@H](c3ccc(F)cc3)N([S+](=O)([O-])c3cccnc3)C2)n1,i
O=C1COCC2(CN(c3ccc(C(F)(F)F)cn3)C2)CN1c1ccccc1F,11.2µM*
COc1ccc(OC(C)c2nc3ccccc3[nH]2)cc1 (stereo not drawn),-16.0%
COc1cc(OC)c(NC(=O)c2ccc(Cc3cc4c(cc3C)C(C)(C)CCC4(C)C)o2)c(OC)c1,11.1µM*
Cc1ccc(CNc2nccn(-c3cc(C)cc(C)c3)c2=O)cc1,-12.1%
O=C1NC[C@@H](CCC(=O)N2CCc3ccccc32)N2C[C@@H](NS(=O)(=O)c3ccccc3)C[C@@H]12,i
CN(CCc1ccccn1)[C@H]1[C@@H]2OC[C@@H](O2)[C@@H](NC(=O)Nc2cccc(C#N)c2)[C@@H]1O,-7.5%[39.2 µM]
C[C@H](N)C(=O)N[C@@H](C)C(=O)NC1[C@H]2CN(c3nc4c(cc3F)c(=O)c(C(=O)O)cn4-c3ccc(F)cc3F)C[C@@H]12 (stereo partly drawn),17.0%
N#Cc1ncc(C(=O)OCC(=O)NC2C3CC4CC(C3)CC2C4)cn1 (stereo not drawn),i
O=C(CCc1c[nH]c2ccccc12)N1CC(N(Cc2ccccc2)C2CCOCC2)C1,-7.6%
O=C(O)Cn1nnc(-c2ccc(CN(CCCCOc3ccc(CN4CCCC4)cc3)CCc3ccccc3)cc2)n1,11.6%
O=C(c1cncs1)N1CCc2c(cc(-c3cccc(F)c3)c(=O)n2CCN2CCCCC2)C1,i
O=C(NC[C@H]1Cn2ccnc2CO1)C1CCCC1,4.2%[39.2 µM]
CCn1c2cc(C)sc2c2cnn(Cc3ccccc3F)c(=O)c21,i
O=C(Cn1c(=O)n(Cc2ccc(C(=O)NCc3ccccc3Cl)cc2)c(=O)c2ccccc21)Nc1ccc(F)cc1,-20.8%

# A few values from above.
# Under nsP2pro inh, COCCn1ccc2ccc(C(=O)Nc3ccc4c(c3)C(=O)N3CCC[C@H]3C(=O)N4)cc21 shows -27.5%
# Under nsP2pro inh, Cc1ccc(-c2nn(C)c(=O)c3ccccc23)cc1S(=O)(=O)NCCCN(C)C shows -25.1%
# Under nsP2pro inh, O=C1COCC2(CN(c3ccc(C(F)(F)F)cn3)C2)CN1c1ccccc1F shows 11.2µM*

# Looked up by compound from the entries so far:
SMILES,nsP2pro inh
CCn1c2cc(C)sc2c2cnn(Cc3ccccc3F)c(=O)c21,i
O=C1NC[C@@H](CCC(=O)N2CCc3ccccc32)N2C[C@@H](NS(=O)(=O)c3ccccc3)C[C@@H]12,i
O=C1COCC2(CN(c3ccc(C(F)(F)F)cn3)C2)CN1c1ccccc1F,11.2µM*
O=C(Cn1c(=O)nc(-c2ccccc2)c2ccccc21)NCCc1ccccc1,-15.1%
CN(CC(=O)O)c1ncnc2ccc(-c3ccc4c(c3)OCO4)cc12,4.5%
O=S(=O)(c1ccc2ccccc2c1)N1CCN(S(=O)(=O)c2c(F)cccc2F)CC1,-6.3%
Cc1ccc(CNc2nccn(-c3cc(C)cc(C)c3)c2=O)cc1,-12.1%

# More entries:
SMILES,nsP2pro inh
Cc1ccc(NC(=O)c2ccc3oc(=O)c(S(=O)(=O)c4ccccc4)cc3c2)cc1C,?
CC(C)c1ccccc1-c1nc(NCc2ccc(-c3cccnc3)cc2)c2occc2n1,i
O=C(CN1C(=O)c2ccccc2Sc2ccc(C(=O)N3CCOCC3)cc21)Nc1ccc(Cl)cc1F,-10.3%
CCn1c(CN2CCN(c3nc(C)cnc3C)CC2)nnc1C1CC(N)C1 (stereo not drawn),i
CCOc1ccc(CCNC(=O)c2cnc3sc(N(CC)CC)nn3c2=O)cc1OCC,-21.0%
O=C(Nc1ccc2n(c1=O)C[C@H]1C[C@@H]2CN(C(=O)NC2CCCCC2)C1)c1ccco1,?
CC(=O)N1CCCC(c2nc(-c3ccc4nc[nH]c4c3)no2)C1 (stereo not drawn),i
CCN(CC)c1ccc(NC(=O)CN2CCN(c3ccccc3OC)CC2)cc1,?
COc1cc(F)c(S(=O)(=O)N2CCN(S(=O)(=O)c3cccs3)CC2)c(F)c1,-2.8%
O=S(=O)(NCc1ccc(F)cc1)c1ccc(N2CCCCS2(=O)=O)cc1,-11.7%
CCN1CCN(Cc2ccc(NC(=O)c3ccc(C)c(Oc4ncnc5[nH]c(C)cc45)c3)cc2C(F)(F)F)CC1,90.8%[activator]
CN(C1CCc2nn(CC3CC3)c(=O)n2CC1)S(=O)(=O)c1cccnc1 (stereo not drawn),i
CNC(=O)[C@H]1C[C@H](Oc2ccccc2)CN1Cc1cn(C)c2ccc(OC)cc12,-7.6%
Cc1ccc(OCCn2c(CCNC(=O)Cc3ccccc3)nc3ccccc32)cc1,i
O=C1NC(=O)/C(=C/c2ccc3c(c2)OCO3)S1,31.0%
O=C(COc1ccc(Br)cc1Br)Nc1ccc(S(=O)(=O)Nc2ncccn2)cc1,-18.8%
COc1cc(C(=O)Nc2nnc(CC(C)(C)C)s2)cc(OC)c1OC,-22.7%
CCCc1nc(C(=O)N[C@H]2COC[C@H]2Cc2cc(C)no2)cs1,2.6%
COc1ccc(C(=O)N2CCOC3(CCN(C(=O)CN)CC3)C2)cc1,?
O=C(CCn1nc(-c2ccc(Cl)cc2)ccc1=O)NCCc1ccccc1,-14.7%
Cn1nc(C2CCCC2)cc1[C@H]1CN2CC[C@H]1C[C@@H]2CNC(=O)c1cccs1,1.0%[39.2 µM]
NCCCNc1ncnc2ccc(-c3ccc4c(c3)OCO4)cc12,?
Fc1ccc(C2Cn3cnc(-c4nc(-c5ccsc5)no4)c3CO2)cc1 (stereo not drawn),i
Nc1ccn([C@H]2CC[C@@H](CO)O2)c(=O)n1,-10.3%&0.9%
CCn1nc(C)c2c(-c3ccccc3)cc(=O)n(C(C)C(=O)NCCC(C)C)c21 (stereo not drawn),?
CCCCNC(=O)CSc1nnc(C)c2c(C)n(-c3ccccc3)nc12,-6.1%
CS(=O)(=O)N1Cc2ccccc2CC2(CCN(Cc3ccccn3)C2)C1 (stereo not drawn),-1.1%
Cc1nn(-c2ccc(C(C)C)cc2)c(C)c1[C@@H]1C=C[C@@H](NC(=O)NC(C)C)C1,7.6%[39.2 µM]
FC(F)(F)C(Cl)Br (stereo not drawn),-3.2%

# Reprinted from above, 2 compounds:
SMILES,nsP2pro inh
Fc1ccc(C2Cn3cnc(-c4nc(-c5ccsc5)no4)c3CO2)cc1 (stereo not drawn),i
Nc1ccn([C@H]2CC[C@@H](CO)O2)c(=O)n1,-10.3%&0.9%
